Screening results as filed in PubChem.
Mtb growth – Confirmatory growth inhibition assay against Mycobacterium tuberculosis H37Rv, potency (AID 1949). inhibition, % at 10 µg/mL, or IC50 in µg/mL where a hit was titrated. actives 1.6% (n = 100,000). most inactive calls were filed without a number and no value below 0 was filed;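 active = confirmed in a dose series; inconclusive = about 50% or more but not retested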;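 also: bacteria grown 7 days with compound before Alamar blue readout; 0% = untreated bacteria and 100% = reference antibiotic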
Starred values were filed as active, the others as inactive; i = inactive; ? = inconclusive. Only part of the results is shown; the hit share may differ from the screen's.

SMILES	Mtb growth
N#CCC(=O)NNC(=S)NCc1ccc(Cl)cc1	i
Cc1c(-c2ccccc2)nc2ccccc2c1C(=O)NCC(C)C	i
O=[N+]([O-])c1cccc(-c2nc(NCC3CCCO3)c3ccccc3n2)c1 (stereo not given)	13%
O=C(COc1ccc(F)cc1)Nc1nc2ccccc2s1	i
CCc1ccc(CC)c(S(=O)(=O)Nc2ccc(C(=O)OC)cc2)c1	i
CCOc1cc(C2Nc3ccccc3NC3=C2C(=O)CC(C)(C)C3)ccc1OC(C)=O (stereo not given)	i
COC(=O)CSc1nnc(NC(=O)c2ccc(Cl)cc2)s1	0.16µg/mL*
Cc1ccccc1CN1CCNC(=O)C1CC(=O)OCc1ccccc1 (stereo not given)	i
COc1cc(C)ccc1OCCCn1cnc2ccccc2c1=O	i
Fc1ccccc1-c1nc(N2CCCC2)c2ccccc2n1	i
CCc1c(C(=O)NC2CCCC2)csc1C	i
COc1ccc2sc(N3C(=O)C4CC=C(C)CC4C3=O)nc2c1 (stereo not given)	i
Cc1nnc(SCC(=O)N2CCCCCC2)n1-c1ccc(F)cc1	i
COc1ccc(COc2ccc3c(-c4ccc(OC)cc4)cc(=O)oc3c2)cc1	i
COc1ccc(S(=O)(=O)Nc2ccc(Cl)c(Cl)c2)cc1C	2%

Gathered by group: those above containing nitrogen in an aromatic ring.
SMILES	Mtb growth
Cc1c(-c2ccccc2)nc2ccccc2c1C(=O)NCC(C)C	i
O=[N+]([O-])c1cccc(-c2nc(NCC3CCCO3)c3ccccc3n2)c1 (stereo not given)	13%
O=C(COc1ccc(F)cc1)Nc1nc2ccccc2s1	i
COC(=O)CSc1nnc(NC(=O)c2ccc(Cl)cc2)s1	0.16µg/mL*
COc1cc(C)ccc1OCCCn1cnc2ccccc2c1=O	i
Fc1ccccc1-c1nc(N2CCCC2)c2ccccc2n1	i
COc1ccc2sc(N3C(=O)C4CC=C(C)CC4C3=O)nc2c1 (stereo not given)	i
Cc1nnc(SCC(=O)N2CCCCCC2)n1-c1ccc(F)cc1	i

(continued)
SMILES	Mtb growth
CC(C)NC(=O)c1nc2ccccc2s1	2%
COCCn1c(-c2ccc(Cl)cc2)n[nH]c1=S	i
S=C(Nc1ccc(N2CCOCC2)cc1)NC1CCCC1	i
Cc1ccccc1OCC(=O)Nc1nc2ccccc2s1	i
N#CCc1ccc(NC(=O)CN(c2ccccc2F)S(=O)(=O)c2ccccc2)cc1	i
O=C(CC1Nc2ccccc2NC1=O)Nc1ccc(OC(F)F)cc1 (stereo not given)	i
CCCCN(Cc1cc2cc(OC)ccc2[nH]c1=O)S(C)(=O)=O	i
O=[N+]([O-])c1ccccc1S(=O)(=O)Nc1ccc(S(=O)(=O)Nc2nccs2)cc1	3.8µg/mL*
C/C(=N\NC(=O)c1cc(C)[nH]n1)c1ccc2ccccc2c1O	0%
COc1cc(NC(=S)N2CCC(C(N)=O)(N3CCCCC3)CC2)c(OC)cc1Cl	i
CC1(C)C(=O)C2(C(=O)Nc3ccccc3Br)CCC1C2 (stereo not given)	i
COC(=O)CSc1nnc2c3ccccc3n(CCc3ccccc3)c2n1	0%
COc1ccc(Cc2nnc(NC(=O)C3CCCCC3)s2)cc1OC	3%
O=C(NCCCN1CCN(CCCNC(=O)c2cccc(F)c2)CC1)c1cccc(F)c1	0%
Cc1cc(Cl)ccc1NC(=O)c1cncc(Br)c1	i
CCC1(C)Cc2c(sc3[nH]c(=S)n(-c4ccccc4C)c(=O)c23)CO1 (stereo not given)	1%
COC(=O)c1ccccc1NC(=O)C1CCN(S(=O)(=O)c2ccc(OC)c(C)c2)CC1	i
CS(=O)(=O)N(CC(=O)N1CCN(c2ccccc2)CC1)c1ccccc1	i
CCOc1cc(C(=O)Nc2sccc2C(=O)N2CCOCC2)cc(OCC)c1OCC	1%
CCOC(=O)COc1ccc(S(=O)(=O)Nc2c(C)cccc2CC)cc1	0.33µg/mL*
CCc1nc(SCC(=O)c2ccc(O)cc2O)n[nH]1	i
Cc1ccc(-c2n[nH]c(=S)n2N=Cc2ccc(-c3ccccc3)cc2)cc1	i
CCOc1ccc(CN2CCN(C3CCCCCC3)CC2)cc1	i
COc1c(Cl)ccc(Cl)c1C(=O)Nc1ccc(C)cc1C	?
CCCS(=O)(=O)N1CCN(Cc2ccc(OCC)cc2)CC1	i
CN(C)c1ccc(-c2nc(-c3ccccc3)c(-c3ccc([N+](=O)[O-])cc3)[nH]2)cc1	42%
CC(C)c1ccccc1OCC(=O)Nc1sc2c(c1C(N)=O)CCCC2	i
CC(NC(=O)C(c1ccccc1)c1ccccc1)C(=O)Nc1ccc(Cl)cc1 (stereo not given)	40%
COCCN(CCOC)Cc1c(O)ccc2c3c(c(=O)oc12)CCC3	4%
CCNCC(O)COc1cc(C)c(Cl)c(C)c1 (stereo not given)	i
CC(C)c1ccc(NC(=O)c2cncc(Br)c2)cc1	i
CC(C)(C)c1ccc(CNC(=O)C2CCCN2S(=O)(=O)c2ccccc2)cc1 (stereo not given)	i
COc1ccc(-c2nn(C)c(=O)c3ccccc23)cc1CNC(=O)NC1CCCCC1	i
COc1ccc(-c2ccc(CCC(=O)O)n2Cc2ccco2)cc1	i
COC(=O)c1cccc(Nc2c3c(nc4ccccc24)CCC3)c1	i
O=C(Nc1ccc(F)cc1F)c1cc2n(n1)C(C(F)(F)F)C1CCCCC1N2 (stereo not given)	i
CS(=O)(=O)Nc1ccccc1C(=O)NCc1ccncc1	i
O=c1c(Oc2ccccc2Cl)c(C(F)(F)F)oc2c(CN3CCOCC3)c(O)ccc12	i
Cc1nn2c(C)nc3sc4c(c3c2nc1=O)CC(C)(C)OC4	i
N#Cc1ccccc1NC(=O)CSc1ccc(Cl)cc1	42%
O=C(NNC(=O)c1ccco1)C(=O)N1CCCCC1	i
O=C(Cn1nc(-c2ccccc2)c2ccccc2c1=O)c1cccs1	3%
Cc1cc(-c2ccccc2)nc(SCCN2C(=O)c3ccccc3C2=O)n1	i
COc1ccc(-c2cn[nH]c2N)c(OC)c1	0%
CC(=O)c1cccc(NC(=O)c2nc3nc(C)cc(C(F)F)n3n2)c1	i
Cc1onc(-c2ccccc2)c1C(=O)NC(=S)Nc1sc2c(c1C#N)CCC2	i
COc1ccc(CC(=O)Nc2ccc(S(N)(=O)=O)cc2)cc1OC	i
Cc1cc(Cl)ccc1NC(=O)CN(c1cc(Cl)ccc1Cl)S(C)(=O)=O	i
COc1ccc(CCNC(=O)c2ccc(N3CCOCC3)c([N+](=O)[O-])c2)cc1OC	0%
O=C(NCCCNC1CCCCC1)c1ccco1	i
O=C(CN(C1CCCCC1)S(=O)(=O)c1ccc(Br)cc1)N1CCCCC1	i
COc1c(C)cc(Br)cc1C(=O)Nc1cc2nn(-c3ccccc3)nc2cc1C	1%
COc1ccc(C)cc1NC(=O)COc1ccc(C(C)C)cc1Br	2%
CCOC(=O)C1CCN(C(=S)Nc2ccc(Nc3ccccc3)cc2)CC1	38%
CC(=O)c1cccc(NC(=O)NN2CCN(C)CC2)c1	0%
CC(=O)Oc1ccc2c(=O)c(-c3ccccc3Cl)c(C(F)(F)F)oc2c1C	i
CCOCCCNC(=O)c1ccccc1SC	i
Cc1ccc(S(=O)(=O)N(CC(=O)Nc2ccccc2C(N)=O)c2ccc(C)c(C)c2)cc1	i
CCOc1ccc(-n2nc3cc(C)c(NC(=S)NC(=O)CC(C)C)cc3n2)cc1	i
COc1ccc(C)cc1NS(=O)(=O)c1ccc(OC)c(OC)c1	i

Going on with the list.
SMILES	Mtb growth
O=C(Nc1sc(-c2ccccc2)cc1C(=O)O)c1ccccc1Cl	i
COC(=O)c1cc(-c2ccccc2)nc2ccccc12	i
COc1ccc(OC)c(NC(=O)C(Cc2ccccc2)N2C(=O)C3C4C=CC(C4)C3C2=O)c1 (stereo not given)	i
CCC(C)c1ccc2oc(-c3cccc(NC(=O)C(C)(C)C)c3)nc2c1 (stereo not given)	23%
COc1ccc(C(=O)NC(=S)Nc2ccc3c(c2)C(=O)OC3)cc1Cl	i
CCOc1ccc(C(=O)N2CCc3ccccc3C2)cc1	i
COc1ccccc1NC(=O)Cn1nnc(-c2cc(OC)c(OC)c(OC)c2)n1	i
CCCc1cc(=O)oc2cc(C)cc(OCc3cccc(OC)c3)c12	i
COc1cc(C(=S)N2CCCC2)ccc1OCc1ccc(Cl)c(Cl)c1	17%
CCOC(=O)c1ccc(NC(=O)c2c(NC(=O)CC)sc3c2CCC(C)C3)cc1 (stereo not given)	13%
CC(C)CN(CC(C)C)S(=O)(=O)c1cc(Cl)ccc1Cl	1%
Cc1cc(OCC(=O)Nc2ccc(F)cc2F)cc(C)c1Br	i
Cc1ccc(SCc2[nH]nc3c2C(c2ccco2)C(C#N)=C(N)O3)cc1 (stereo not given)	1%
CCCCc1cc(=O)oc2cc(OC3CCCCC3=O)ccc12 (stereo not given)	i
O=C(c1ccc(CSc2ccccc2)cc1)N1CCN(c2ccccc2F)CC1	i
COc1ccc(NC(=O)c2oc3cc(C)c(C)cc3c2C)cc1Cl	i
CC1=C(C(=O)Nc2ccccc2C)C(c2ccccc2F)n2nnnc2N1 (stereo not given)	i
Cc1cccc(N(CC(=O)Nc2cccc(F)c2)S(C)(=O)=O)c1C	i
COC(=O)c1ccccc1NC(=O)CN(C)S(=O)(=O)c1ccc(OC)c(OC)c1	i
Cc1cc(C)cc(OC(C)C(=O)Nc2ccc(C)cc2C)c1 (stereo not given)	i
CCOc1ccc(S(=O)(=O)N2CCC(C(=O)Nc3ccc(OC)cc3OC)CC2)cc1C	i
C=C(C)Cn1c(COc2ccc(Cl)cc2Cl)nc2ccccc21	6%
CCOc1ccccc1C(=O)NC1CC1	i
COc1ccccc1NC(=O)c1sc2cccc(Cl)c2c1Cl	i
O=C(O)CNS(=O)(=O)c1ccc(I)cc1	i
CCn1c(CNC(=O)c2ccc(C)cc2)nnc1SCC(=O)Nc1sc2c(c1C#N)CCCC2	i
COc1ccccc1Cc1noc(COc2cccc(C)c2C)n1	12%
O=C(NC1CCCCC1)c1cccc(S(=O)(=O)N2CCOCC2)c1	i
O=C(C1CCCCC1)N1CCN(c2ccc(F)cc2)CC1	i
O=C(NC(=S)Nc1ccc(-c2cc3ccccc3oc2=O)c(Cl)c1)c1cccs1	i

Quoted at random: four entries already listed
SMILES	Mtb growth
CCOCCCNC(=O)c1ccccc1SC	i
CCOC(=O)c1ccc(NC(=O)c2c(NC(=O)CC)sc3c2CCC(C)C3)cc1 (stereo not given)	13%
COc1ccc(COc2ccc3c(-c4ccc(OC)cc4)cc(=O)oc3c2)cc1	i
CCOc1ccc(S(=O)(=O)N2CCC(C(=O)Nc3ccc(OC)cc3OC)CC2)cc1C	i

Additional entries
SMILES	Mtb growth
C=CCNCCOc1ccc(OCC)cc1	i
COc1ccc(CCNC(=O)CSc2ncnc3sc4c(c23)CCCC4)cc1	i
COc1ccc2c([N+](=O)[O-])c(N3CCOCC3)[nH]c2c1	1%
CC(=O)Nc1ccc(C23CC4CC(CC(C4)C2)C3)cc1[N+](=O)[O-]	0%
CC(C)(C)OC(=O)N1CCCC1C(=O)O (stereo not given)	1%
CCOC(=O)c1c(NC(=S)Nc2ccc3c(c2)OCCO3)sc(C)c1-c1ccccc1	i
CN(c1ccc(C(=O)Nc2cccc([N+](=O)[O-])c2)cc1)S(=O)(=O)c1ccccc1	6%
Cc1cccn2c(=O)c3cc(S(=O)(=O)c4ccc(Cl)cc4)c(=N)n(Cc4ccco4)c3nc12	i
O=C(NC1CCS(=O)(=O)C1)c1sc2cc(F)ccc2c1Cl (stereo not given)	i
CCc1nc(SCC(=O)Nc2nnc(CC(C)C)s2)n[nH]1	0%
O=c1oc2ccccc2cc1-c1csc(Nc2ncccn2)n1	i
CCOC(=O)c1ccc(NC(=S)N2CCN(C(c3ccccc3)c3ccccc3)CC2)cc1	i
CC(NS(=O)(=O)c1ccc(OCC(=O)Nc2ccc3c(c2)OCCO3)cc1)c1ccccc1 (stereo not given)	1%
CC(Oc1ccc(C(=O)NC2CCCCC2)cc1)C(=O)OCc1ccccc1Cl (stereo not given)	0.95µg/mL*
CC(C)N(Cc1nc(-c2ccc(Cl)cc2)no1)C(=O)c1cccs1	3%

In another format: results already given
> CCc1c(C(=O)NC2CCCC2)csc1C
  Mtb growth = i
> COc1ccc2sc(N3C(=O)C4CC=C(C)CC4C3=O)nc2c1 (stereo not given)
  Mtb growth = i
> Cc1nnc(SCC(=O)N2CCCCCC2)n1-c1ccc(F)cc1
  Mtb growth = i
> COc1ccc(COc2ccc3c(-c4ccc(OC)cc4)cc(=O)oc3c2)cc1
  Mtb growth = i

The list goes on:
SMILES	Mtb growth
Cc1ccc(S(=O)(=O)Nc2c(C)[nH]c(=O)[nH]c2=O)cc1C	i
O=C(CC(c1ccccc1)c1cc(Cl)ccc1O)N1CCNCC1 (stereo not given)	i
Cc1cc(C)cc(C(=O)N2CCN(c3ccccn3)CC2)c1	i
Cc1ccccc1OC(=O)c1cccnc1	i
Cc1cc(C)c(C#N)c(SCC(=O)Nc2cc(C(F)(F)F)ccc2Cl)n1	4%
CCCCN1C(=O)CC(N2CCOCC2)C1=O (stereo not given)	i
O=C(COc1ccc(S(=O)(=O)NCc2ccccc2)cc1)Nc1ccc(F)c(Cl)c1	i
COc1ccc(CCNC(=O)CCC(=O)NCCc2ccc(OC)cc2)cc1	i
COCCCNc1sc(S(=O)(=O)c2ccc(C)cc2)nc1S(=O)(=O)c1ccc(C)cc1	i
CC1(C)CC2CC(C)(CN2C(=O)C23CCC(C)(C(=O)C2)C3(C)C)C1 (stereo not given)	2%
O=c1c2c(-c3ccc(Cl)cc3)csc2nc2c3ccccc3c(NCCN3CCOCC3)nn12	11µg/mL*
COc1ccccc1CC(=O)Nc1ccc(S(=O)(=O)Nc2nccs2)cc1	i
CCOC(=O)Cc1csc(NC(=O)COc2ccc(CC)cc2Br)n1	11%
COc1cccc(NC(=O)CN2C(=O)C3C4C=CC(C4)C3C2=O)c1 (stereo not given)	i
C=CCN(c1ccc(C(=O)Nc2ccc(C)cc2)cc1)S(C)(=O)=O	i
CCOc1ccc(-c2csc3ncn(CC(=O)N4CCC(C)CC4)c(=O)c23)cc1	i
Cc1cc(CNC(=O)Cc2ccc([N+](=O)[O-])cc2)nn1C	0%
